Compound activity (PubChem)
2A Renilla = Primary qHTS Assay for Foot and Mouth Disease Virus Antivirals against NCGC Sytravon and CBC Compound Libraries: Renilla Luciferase Signal; HEK cells with a luciferase reporter of 2A StopGo recoding; Potency, µM (titrated, usually from 57.5 µM), for the others: top-dose signal change, negative = less light; 0.32% of 120,000 active; active means well fitted falling curve with a large enough effect; inconclusive means small, poorly fitted or top-dose-only effect; inactive means no such curve, though single readings can be large or run the other way; further: nearly all actives have a fitted effect of over 55% in size; overnight with compound
2A firefly = Primary qHTS Assay for Foot and Mouth Disease Virus Antivirals against NCGC Sytravon and CBC Compound Libraries: Firefly Luciferase Signal; 0.23% of 120,000 active; HEK cells with a luciferase reporter of 2A StopGo recoding; Potency, µM (series often up to 57.5 µM), without a hit: top-dose signal change, negative = less light; active = well fitted falling curve with a large enough effect; inconclusive = small, poorly fitted or top-dose-only effect; inactive = no such curve, though single readings can be large or run the other way; further: nearly all actives have a fitted effect of over 60% in size; overnight with compound
* marks the source's active call; other numbers are inactive results; ? = inconclusive; & = joins results of further samples; [ ] = remark or other dose. On the % scale 0 is the no-effect control and ±100 the full control effect; potency means the concentration at half of the fitted maximal effect. A portion of the library (hit frequency here may not be typical).

SMILES	2A Renilla	2A firefly
O=C(NC1CCC(c2ccccc2)CC1)c1ccc(Cl)nc1 (centres undefined)	?	?
Cc1onc(-c2ccccc2)c1-c1nnc(CSc2nnnn2C2CCCC2)o1	10%	-15%
CN(C(=O)CCc1c[nH]c2ccccc12)C1CCCC1	27%	169%[activator]
N#Cc1cccnc1N1CCN(C(C(=O)O)c2c[nH]c3ccc(Cl)cc23)CC1 (centres undefined)	-12%	-14%
CC(C)NC(=O)c1cccc2c1CCCN2CC(=O)NC(N)=O	-13%	13%
CC1C(=O)N(Cc2ncc(-c3ccccc3)o2)C(=O)N1c1ccc(F)cc1 (centres undefined)	5%	33%[activator]
O=C(Nc1cc(-c2nc3ccccc3o2)ccc1Cl)c1ccc(Br)o1	-13%&-15%	15%&132%
COc1ccc(-c2nc(NC(=O)Cn3cnc4c3c(=O)n(C)c(=O)n4C)sc2C)cc1	-5%	12%
Cn1c(=O)c2c(nc(SCC(=O)Nc3ccccc3)n2Cc2ccccc2F)n(C)c1=O	20%&-2%	23%&-5%
COc1ccc(NC(=O)C2(n3cnnn3)CCCCC2)cc1OC	-4%	6%
O=C(c1nc(-c2cccnc2)no1)N1CCN(c2ccccc2)CC1	5%	-9%
Cc1cc(NC(=O)c2cc(-c3ccccc3C)nc3ccccc23)no1	-3%	-13%
CCCCn1c(=O)[nH]c(=O)c2c1nc(-c1csnn1)n2CCC(C)C	-16%	-11%
C=CC[C@H]1c2ccccc2[C@H]2N3N=Cc4ccccc4[C@H]3[C@H](CCc3ccccc3)C(=O)N2N1C(=O)c1ccccc1	11%	0%
CC1CCN(S(=O)(=O)c2ccc3c(c2)N(CC(=O)NCc2ccccc2Cl)C(=O)CO3)CC1	7%	-8%
Cc1ccc(NC(=O)c2cccc(NC(=O)N3CCSc4ncccc43)c2)cc1F	-7%	-26%
N#CCCN(C(=O)COC(=O)c1ccccc1Sc1ccc(C(F)(F)F)cc1[N+](=O)[O-])c1ccccc1F	16%	8%
O=C(CCc1ccccc1)NCc1ccc2c(c1)CCN2C(=O)c1ccc(Cl)cc1	-13%	-7%
O=C(NN1CCOCC1)c1ccn(COc2ccc(F)c(Cl)c2)n1	-11%	1%
COc1ccc(CNC(=O)c2cc(Cl)ccc2NC(=O)C2=C(C)OCCS2)cc1	17%	-18%
CCC(=O)Nc1ccc(-c2nc3cc(OC)ccc3o2)cc1	3%	54%[activator]
Cc1ccc2c(N)cccc2n1	6%	32%[activator]
COc1ccc(NC2=NC(C(=O)Nc3ccc(C)c(C)c3)CC(=O)N2)cc1 (centres undefined)	-10%	-6%
CC(=O)c1c(C)[nH]c(C(=O)COc2ccc3ccc(=O)oc3c2)c1C	-24%	?
CCC(=O)Nc1ccc(C(C)NCc2cccs2)cc1 (centres undefined)	-17%	-6%
Cc1ncc(-c2ccc(C)c(S(=O)(=O)N3CCN(c4ccc(F)cc4)CC3)c2)o1	-1%	3%
COc1cc(C2CC(=O)Nc3c2c(=O)n(C)c2ncnn32)cc(OC)c1OC (centres undefined)	-11%	-13%
CN(Cc1ccccc1)S(=O)(=O)c1ccc(F)c(C(=O)Nc2cc(Cl)cc(Cl)c2)c1	-17%	-15%
CCn1c(C(=O)NCCc2ccc(S(N)(=O)=O)cc2)cc2sc(Cl)cc21	-12%	-20%
O=[N+]([O-])c1cccc(/C=N/c2nc3c(s2)CCCC3)c1	2%	0%
C=C1C2(C(=O)N/N=C/c3ccccc3Cl)CCC(C2)C1(C)C (centres undefined)	7%	0%
Cc1ccc2nc(C)c(C(=O)N3CCN(S(=O)(=O)c4cc(F)ccc4F)CC3)cc2c1	-11%	-6%
CC1CCCN(S(=O)(=O)c2cc(C(=O)NCc3ccccc3Cl)n(C)c2)C1 (centres undefined)	59%[activator]	14%
CC(Sc1ncnc2nc[nH]c12)C(=O)NCc1ccc(Cl)cc1 (centres undefined)	7%	22%
Cc1cccc(COC(=O)C2=NN(C3CCS(=O)(=O)C3)C(=O)CC2)c1 (centres undefined)	-1%	-13%
COc1ccc2oc(-c3cccc(NC(=O)c4ccc(Br)o4)c3)nc2c1	4%	0%
Cc1ccc(N(C)S(=O)(=O)c2c(-c3ccccc3)csc2C(=O)NCc2ccco2)cc1	167%[activator]	-24%
COc1ccc(C2=NN(C(=O)CSc3nc4ccccc4[nH]3)C(c3ccco3)C2)cc1 (centres undefined)	17%	16%
COc1ccc2cnn(CC(=O)Nc3ccccc3)c(=O)c2c1OC	10%	3%
CCOc1ccc(CC(=O)Nc2ccc3nc(N4CCCCC4)cc(C)c3c2)cc1OCC	-13%	13%

7 of the compounds above, as a markdown table:
| molecule | 2A Renilla | 2A firefly |
| --- | --- | --- |
| COc1ccc(C2=NN(C(=O)CSc3nc4ccccc4[nH]3)C(c3ccco3)C2)cc1 (centres undefined) | 17% | 16% |
| Cc1ccc2nc(C)c(C(=O)N3CCN(S(=O)(=O)c4cc(F)ccc4F)CC3)cc2c1 | -11% | -6% |
| Cc1ccc(N(C)S(=O)(=O)c2c(-c3ccccc3)csc2C(=O)NCc2ccco2)cc1 | 167%[activator] | -24% |
| COc1ccc(NC2=NC(C(=O)Nc3ccc(C)c(C)c3)CC(=O)N2)cc1 (centres undefined) | -10% | -6% |
| CCn1c(C(=O)NCCc2ccc(S(N)(=O)=O)cc2)cc2sc(Cl)cc21 | -12% | -20% |
| O=[N+]([O-])c1cccc(/C=N/c2nc3c(s2)CCCC3)c1 | 2% | 0% |
| CC(Sc1ncnc2nc[nH]c12)C(=O)NCc1ccc(Cl)cc1 (centres undefined) | 7% | 22% |

Structures from the list above that contain a thiophene ring, fused or not (3):
SMILES	2A Renilla	2A firefly
CCC(=O)Nc1ccc(C(C)NCc2cccs2)cc1 (centres undefined)	-17%	-6%
CCn1c(C(=O)NCCc2ccc(S(N)(=O)=O)cc2)cc2sc(Cl)cc21	-12%	-20%
Cc1ccc(N(C)S(=O)(=O)c2c(-c3ccccc3)csc2C(=O)NCc2ccco2)cc1	167%[activator]	-24%

Going on with the list.
SMILES	2A Renilla	2A firefly
COc1ccc(/C=C2\Oc3cc(OS(=O)(=O)c4ccc(C)cc4)ccc3C2=O)c(OC)c1	0%	9%
CCCC1=Nc2cc(C(=O)NCCc3ccc(OCC)cc3)ccc2Sc2ccccc21	-22%	?
Cc1ccc(NC(=O)c2c(N3CCCC3=O)c3cc(C)ccc3n2C)c(C)c1	-8%	-22%
Cn1c(SCC(=O)c2ccc(F)cc2)nnc1-c1ccccc1Br	46%[activator]	178%[activator]
COc1ccc(C)cc1NC(=O)C1CCN(S(=O)(=O)c2cc(Br)cc3c2N(C(C)=O)CC3)CC1	-8%	-9%
CCc1nc(C#N)c(NCCc2ccc(OC)c(OC)c2)o1	3%	22%
CCCCCNC(=O)c1cc(-c2ccc(OC)cc2)nc2ccccc12	9%	0%
O=C(Nc1ccc2nc(SCC(=O)N3CCCC3)sc2c1)c1ccccc1	34%[activator]	47%
Cc1ccc(N/N=C/C(Br)=C/c2ccccc2)cc1Cl	16%	161%[activator]
Nc1cccc(OCC(F)(F)F)c1	-1%	1%
Cc1c(CNC(C)CCc2ccccc2)c(C(=O)O)c(C)n1Cc1ccc(F)cc1Cl (centres undefined)	8%	-32%
CCc1ccc(NC(=O)c2sc3nc(C)c(C(=O)Nc4ccc(C)cc4C)c(-c4ccco4)c3c2N)cc1	-10%	-23%
C=C(C)COc1ccc(NC(C)=O)cc1	-5%	59%[activator]
Cc1ccc(CNC(=O)c2scnc2C)cn1	-3%	0%
COc1ccccc1/C=C/c1nc(C#N)c(NCc2ccc(F)cc2)o1	64%[activator]	96%[activator]
CC1Sc2ccc(S(=O)(=O)NC3CCN(Cc4ccccc4)CC3)cc2NC1=O (centres undefined)	?	?
Cc1ccc(C)c(N2CCN(c3nc4ccccc4c4nc(CCn5nc(C)cc5C)nn34)CC2)c1	-8%	-12%
Cc1c(NC(=O)c2cc3ccccc3o2)cccc1-c1nc2ccccc2o1	6%	-3%
CC(=O)NCc1ccc(-c2csc(-c3ccc(C)cc3)n2)o1	-8%	0%
CCCCn1c(=O)n(CC(=O)Nc2ccc3c(c2)OCCO3)c(=O)c2c1ncn2C1CCCC1	4%	6%
O=C(/C(=C/c1ccc(O)cc1)c1nc2ccccc2s1)c1ccccc1	?	-68%
CCSc1ncc2c(=O)n(CC(=O)Nc3cccc(Br)c3)cnc2n1	-1%	5%
CCOC(=O)CN1C(C(=O)c2ccccc2)=C(OC(=O)c2ccccc2)c2ccccc2S1(=O)=O	15%	2%
Cc1ccc(/C(=N/O)c2ccc(O)cc2O)cc1	26%	146%[activator]
O=C(Nc1ccc(Cl)cc1)C1CCCN(c2ncnc3nc[nH]c23)C1 (centres undefined)	-5%	-5%
CCC(=O)c1ccc(OCc2cccc(C#N)c2)cc1	16%	171%[activator]
COc1ccc(NC(=O)C2CCN(S(=O)(=O)c3c(C)noc3/C=C/c3cccs3)CC2)cc1	-3%	6%
COc1nc(N(C)C)nc(-n2cnc(SCc3ccccc3)n2)n1	11%	25%
COCCN(Cc1nc2ccccc2c(=O)[nH]1)C(=O)c1oc2ccc(F)cc2c1C	1%	-10%
CC(Oc1ccc2c(-c3ccccc3)cc(=O)oc2c1)c1ccccc1 (centres undefined)	0%	8%
CC(=O)c1cccc(NC(=O)C(C)Sc2ccccc2Cl)c1 (centres undefined)	13%	0%
CCC(=O)N1CCc2cc(Br)cc(S(=O)(=O)CCC(=O)NCc3ccccc3OC)c21	3%	-19%
CCOC(=O)c1oc2ccccc2c1COC(=O)CNC(=O)c1cc(OC)c(OC)c(OC)c1	10%	45%[activator]
COc1ccccc1-c1nc(C#N)c(NCc2ccccc2Cl)o1	166%[activator]	38%[activator]
CC(=O)NNC(=S)Nc1cccc(Cl)c1Cl	3%	0%
COc1cccc(OCC(=O)NC2CC(=O)N(c3ccc4c(c3)OCCO4)C2)c1 (centres undefined)	-12%	?
COc1ccc(Cl)cc1NC(=O)CCC(=O)N1CCOc2ccccc21	5%	-8%
COc1ccc(-c2cn3nc(N4CCC(C(=O)Nc5cccc(Cl)c5)CC4)sc3n2)cc1	7%	98%[activator]
COc1cn(CC(=O)Nc2cccc(C)c2)c(CN2CCCCC2)cc1=O	-9%	-20%
CCCn1nnc(NC(=O)c2cc3ccccc3cc2OC)n1	0%	61%[activator]
CCOc1ccc(CNCc2ccco2)cc1Cl	32%[activator]	30%
Cc1cc(C)c2nc(-c3cccc(N)c3)cc(C(=O)O)c2c1	-1%	22%
CS(=O)(=O)Cc1cccc(C(=O)Oc2ccc(C34CC5CC(CC(C5)C3)C4)cc2)c1	?	3%
Cc1cccc(N2CCN(S(=O)(=O)c3ccc4c(c3)CCCN4C(=O)C3CCC3)CC2C)c1 (centres undefined)	-4%	-20%
Cc1nc(-c2cccs2)c(CCC(=O)N2CCN(c3ccc(F)cc3)CC2)s1	11%	3%
CCCCn1c(=O)[nH]c(=O)c2c1nc(CCc1ccccc1)c(=O)n2C	5%	10%
NC(=O)c1ccc(CN(C(=O)Cc2cccs2)C2CC2)cc1	2%	2%
CN(c1ncnc2onc(-c3cccc(Cl)c3)c12)C1CCCCC1	-2%	-11%
CCOC(=O)Cn1c(C2CC(=O)N(c3ccc(C)cc3)C2)nc2ccccc21 (centres undefined)	-5%	-11%
Cn1c(=O)c2c(nc(SCC(=O)Nc3ccc(F)cc3)n2Cc2ccccc2)n(C)c1=O	-6%&-7%	-3%&-11%
Nc1ccc2cc3ccc(N)cc3nc2c1	?	-33%
CCCC(=O)c1cn(Cc2ccccc2C#N)c2ccccc12	9%	-10%
CCOc1cc(C(=O)NNC(=S)NCCCOC)cc(OCC)c1OCC	-4%	-1%
COC(=O)c1ccccc1NC(=O)CCc1c(C)nc2c(c(C)nn2-c2ccccc2)c1C	-7%	-7%
Cc1nc(N2CCOCC2)c2c(C(=O)N(C)Cc3ccccc3)c(C)oc2n1	-2%	-7%
Cc1cc(C)cc(OCC(=O)N2CCC(NC(=O)c3ccccc3)CC2)c1	-1%	-10%
Cc1ccc(N2CCN(C(=O)c3c(C)oc4nc(C)nc(N5CCCC5)c34)CC2)c(C)c1	-30%&-6%	-28%&-18%
CCCC(O)c1nc2ccccc2n1CCCOc1ccc(Cl)cc1 (centres undefined)	?	?
CCOc1ccc(OCC)c(NC(=O)Cn2ncc3c4ccccc4n(Cc4ccccc4)c3c2=O)c1	-15%	-5%
Cn1c(=O)c2nc(SCC(=O)Nc3cc(Cl)ccc3Cl)n(C)c2n(C)c1=O	-7%	-12%

Compound profiles, as listed above. Order of values: 2A Renilla	2A firefly
Shown for `CCCC(O)c1nc2ccccc2n1CCCOc1ccc(Cl)cc1` (centres undefined) = ?	?
Shown for `CCCC(=O)c1cn(Cc2ccccc2C#N)c2ccccc12` = 9%	-10%
Shown for `Cn1c(=O)c2c(nc(SCC(=O)Nc3ccc(F)cc3)n2Cc2ccccc2)n(C)c1=O` = -6%&-7%	-3%&-11%
Shown for `Cc1cc(C)c2nc(-c3cccc(N)c3)cc(C(=O)O)c2c1` = -1%	22%
Shown for `Cc1cccc(N2CCN(S(=O)(=O)c3ccc4c(c3)CCCN4C(=O)C3CCC3)CC2C)c1` (centres undefined) = -4%	-20%

Later entries.
SMILES	2A Renilla	2A firefly
N#Cc1ccc(NC(=O)COCc2cc(-c3ccc4c(c3)OCO4)on2)cc1	12%	-10%
COc1ccccc1CCNC(=O)CCSc1nc(Cl)nc2nc[nH]c12	12%	10%
CCc1ccc(CNC(=O)C2COc3ccc(OC)cc3C2)cc1 (centres undefined)	-3%	8%
O=C(O)c1ccccc1-c1ccccc1C(=O)O	-6%	-2%
